Screening results deposited in PubChem by ICCB-Longwood Screening Facility, Harvard Medical School.
Mtb MbtI inh – MbtI salicylate synthase inhibitors, primary screen, biochemical, fluorescence intensity. AID 493033, 2011. 0.89% of 100,000 active. inhibition, %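 (about 17 µg/mL by stock and volumes)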. P9WFX0. purified MbtI enzyme, fluorescence intensity read-out;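 active = above 50% in both replicates, above 80% if mildly self-fluorescent; inactive = the rest, strongly fluorescent compounds included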;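 note: 0% = mean of negative and 100% = mean of positive controls; one replicate is shown; some compounds called inactive have numbers as strong as hits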
Target sequence (P9WFX0 whole entry, looked up): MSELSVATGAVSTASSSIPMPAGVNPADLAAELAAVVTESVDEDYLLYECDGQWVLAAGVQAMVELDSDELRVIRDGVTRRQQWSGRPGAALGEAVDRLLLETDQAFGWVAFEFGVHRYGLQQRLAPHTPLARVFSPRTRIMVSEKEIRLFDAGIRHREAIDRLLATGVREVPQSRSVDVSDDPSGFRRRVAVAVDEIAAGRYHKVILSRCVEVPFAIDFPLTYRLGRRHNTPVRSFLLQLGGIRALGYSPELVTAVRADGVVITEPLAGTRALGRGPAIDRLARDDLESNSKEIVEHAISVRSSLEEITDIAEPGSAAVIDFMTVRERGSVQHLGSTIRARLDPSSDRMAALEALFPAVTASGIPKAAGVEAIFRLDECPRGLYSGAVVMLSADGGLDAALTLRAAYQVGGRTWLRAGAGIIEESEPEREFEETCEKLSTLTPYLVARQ
Polio RdRp inh – poliovirus RdRp elongation inhibitors, primary screen, biochemical, fluorescence polarization, total intensity. Genome polyprotein (Poliovirus type 1 (strain Mahoney)), P03300. poliovirus polymerase elongation; active compounds read low. % elongation, % (compound at 16.7 µg/mL). 0.66% of 150,000 active; in the data active = % elongation below about 90%; note: some results filed as inactive read as strong as hits
Target sequence (P03300 1749-2209 limits assumed): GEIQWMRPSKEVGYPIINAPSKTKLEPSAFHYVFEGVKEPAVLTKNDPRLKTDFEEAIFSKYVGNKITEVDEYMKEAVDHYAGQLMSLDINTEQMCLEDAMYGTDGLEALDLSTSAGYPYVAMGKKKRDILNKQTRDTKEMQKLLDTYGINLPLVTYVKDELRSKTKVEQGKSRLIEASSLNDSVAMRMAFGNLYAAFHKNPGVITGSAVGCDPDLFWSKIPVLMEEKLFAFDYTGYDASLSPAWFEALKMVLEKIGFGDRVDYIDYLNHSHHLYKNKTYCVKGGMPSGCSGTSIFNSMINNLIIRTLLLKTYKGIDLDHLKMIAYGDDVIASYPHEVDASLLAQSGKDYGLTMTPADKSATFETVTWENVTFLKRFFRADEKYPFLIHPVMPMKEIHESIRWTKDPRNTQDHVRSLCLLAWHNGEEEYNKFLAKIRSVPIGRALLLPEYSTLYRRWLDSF
MenB inh – M. tuberculosis MenB inhibitors, primary screen, biochemical, absorbance; MenB enzyme assay, absorbance read-out; some hits fall short of the stated cut; inhibition, %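 (about 12 µg/mL by stock and volumes)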; 0.43% of 100,000 active;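 active = mean of two replicates above 30%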;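 note: 0% = no compound and 100% = wells with inactive enzyme; the first replicate is given; strong numbers were not always called active; inactives centre near -10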
Polio RdRp inh intensity – further read-out of Polio RdRp inh, marked with its call; % elongation; measured here: total intensity read-out; formula for this scale not given here;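 total fluorescence in place of polarization; lower means less elongation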
* hit, by the source's call; / = not tested or not shown; & = joins results of further samples.

SMILES	Mtb MbtI inh	Polio RdRp inh	Polio RdRp inh intensity	MenB inh
CCCCS(=O)(=O)N1CCN(C(=S)c2ccc(OC)cc2)CC1	6	98	104	2
CCNS(=O)(=O)c1ccc(NC(=O)C2CC(=O)N(C(C)(C)C)C2)cc1 (configuration not stated)	-6	101	102	-44
COC(=O)c1cccc2c1-c1ccccc1/C2=N\NC(N)=O	9	103	104	-15
c1ccc(-n2nnnc2N2CCCC2c2ccc3c(c2)OCCO3)cc1 (configuration not stated)	-9	92	97	-23
COc1cc2c(cc1OC)C1(CCCC1)CNC2C (configuration not stated)	6	104	100	7
Nc1nc(CCC(=O)O)nc(Nc2ccccc2)n1	-5	98	102	4
CCOc1ccc(S(=O)(=O)N2CCN(C(=O)c3cc(S(=O)(=O)N4CCOCC4)ccc3C)CC2)cc1	-3	101	104	-23
CN(CC(=O)Nc1ncn[nH]1)S(=O)(=O)c1ccc(Cl)cc1	1	101	103	-26
CCCCc1ccc2nc(NC(=O)OC)[nH]c2c1	6	100	100	-2
O=C1Nc2ccccc2O/C1=C\c1ccc(C(=O)N2CCN(c3ccccn3)CC2)cc1	59	100	102	-7
C=CCN1C(=O)/C(=C/c2ccco2)S/C1=N/S(=O)(=O)c1ccccc1	-3	98	106	-18
CCOC(=O)Nc1ccc2c(COC(=O)c3cccc(OCc4c(C)noc4C)c3)cc(=O)oc2c1	81	104	100	11
COc1cc(OC)cc(C(=O)NCC(=O)NCc2ccccn2)c1	1	101	109	-23
O=C(/C=C/c1ccc(Br)o1)NCCCN1CCOCC1	27	98	103	/
CCC(C(=O)Nc1ccc(C(=O)N(C)C)cc1)c1ccccc1 (configuration not stated)	2	99	90	-21
CC(=O)NC(C)c1cc(C(C)(C)C)c(O)c(C(C)(C)C)c1 (configuration not stated)	-6	100	103	/
CCOC(=O)C(C)N1C(=O)S/C(=C/c2ccc(-c3ccccc3C(=O)O)o2)C1=O (configuration not stated)	15	101	107	-328
CN(CCC#N)C(=O)c1cc2c(s1)-c1ccccc1OC2	119	102	103	-17
CCc1ccc2nc(Cl)sc2c1	14	105	106	-26
CCN1CCC(N(C)CCc2ccccc2)CC1	2	101	103	7
Cc1nc(COC(=O)[C@H](C(C)C)N2C(=O)c3ccccc3C2=O)cs1	2	97	97	4
FC(F)(F)c1cccc(N2CCN(C(=S)Nc3ccccc3)CC2)c1	/	104	106	-4
CN(C)c1ccc(/C=c2\sc3nc4ccccc4n3c2=O)cc1	-6	112	116	10
CC(OC(=O)c1ccccc1OC(F)F)C(N)=O (configuration not stated)	-11	96	97	-84

Compound profiles, from the list above. Values in the order: Mtb MbtI inh	Polio RdRp inh	Polio RdRp inh intensity	MenB inh
`CC(OC(=O)c1ccccc1OC(F)F)C(N)=O` (configuration not stated) reads -11	96	97	-84
`CN(CCC#N)C(=O)c1cc2c(s1)-c1ccccc1OC2` reads 119	102	103	-17
`CC(=O)NC(C)c1cc(C(C)(C)C)c(O)c(C(C)(C)C)c1` (configuration not stated) reads -6	100	103	/
`CN(C)c1ccc(/C=c2\sc3nc4ccccc4n3c2=O)cc1` reads -6	112	116	10
`CCOC(=O)C(C)N1C(=O)S/C(=C/c2ccc(-c3ccccc3C(=O)O)o2)C1=O` (configuration not stated) reads 15	101	107	-328

Going on with the list.
SMILES	Mtb MbtI inh	Polio RdRp inh	Polio RdRp inh intensity	MenB inh
COC(=O)C1=C(N)C(=O)N(c2ccc(C(=O)OC)cc2)C1	/	101	94	-31
N#Cc1ccc(OCC(=O)NC2CCCC2)cc1	-4	102	104	/
C/C(=N\NC(N)=O)C1(C)CC2(CC(C)(C)OC2=O)C(=O)O1 (configuration not stated)	-6	105	102	-14
COC(=O)C1(C(=O)OC)C2C3C4CC5C6C4C2C6C1C53 (configuration not stated)	9	104	101	-3
CSc1ccc(Cl)c(C(=O)OCC(=O)N2CCc3ccccc32)c1	2	101	104	/
Cc1ccc(OC(=O)CN2C(=O)c3ccccc3C2=O)cc1C	-9	100	100	-25
CCN(CC(=O)NC1CCS(=O)(=O)C1)C(=O)c1cc2ccccc2o1 (configuration not stated)	10	/	/	-44
CCOC(=O)Cn1cnc2c(oc3ccccc32)c1=O	-6	98	103	-5
CC(=O)N1CCCc2cc(S(=O)(=O)CCC(=O)O)ccc21	-6	100	104	-5
CN1CCN(S(=O)(=O)c2ccc(SCC(=O)c3c[nH]c4ccccc34)nc2)CC1	6	104	103	-38
COC(=O)c1ccccc1NC(=O)CSc1nnnn1-c1ccc2c(c1)OCO2	-1	101	104	3
COc1ccc(CC(O)CN2CCOCC2)cc1 (configuration not stated)	/	90	94	-4

At a glance, part of the list above:
SMILES	Mtb MbtI inh	Polio RdRp inh	Polio RdRp inh intensity	MenB inh
CSc1ccc(Cl)c(C(=O)OCC(=O)N2CCc3ccccc32)c1	2	101	104	/
Cc1ccc(OC(=O)CN2C(=O)c3ccccc3C2=O)cc1C	-9	100	100	-25
CCN(CC(=O)NC1CCS(=O)(=O)C1)C(=O)c1cc2ccccc2o1 (configuration not stated)	10	/	/	-44

Additional entries
SMILES	Mtb MbtI inh	Polio RdRp inh	Polio RdRp inh intensity	MenB inh
O=C(COc1cccc(Oc2ccccc2)c1)N1CCN(c2ccccc2)CC1	-8	103	108	/
COC1=CC(=C2C=CC(=[N+](C)C)C=C2)Oc2ccccc21	3	102	112	-98
COc1ccc2nc3sc(C(=O)N(C)c4cccc(C(F)(F)F)c4)cc3cc2c1	-7	104	108	-9
CNC(=O)N1CCn2cccc2C1C(C)C (configuration not stated)	-11	99	101	4
O=C(NCC1CN(Cc2ccccc2)CCO1)c1ccc(N2CCOCC2)nc1 (configuration not stated)	-6	105	111	-6
CC1CCCC(C)N1C(=O)CN1CCC(N2CCCCC2)CC1 (configuration not stated)	-11	102	102	-61
COc1ccc(CN2CCN(C(=O)C3CCN(S(=O)(=O)c4cnc[nH]4)CC3)CC2)c(OC)c1OC	-4	100	105	-23
COc1cc(S(=O)(=O)N2CCOCC2)cc(C(=O)OCC(=O)N2CCCc3ccccc32)c1OC	-6	104	107	-20
NNC(=O)CNC(=O)c1ccccc1	-9	100	100	-1
CCC(=O)Nc1ccc(N2CCCCC2)cc1	-21	101	103	0
NCCc1ccc(OC(F)F)cc1	5	104	111	-15
OCCNC(=S)Nc1ccccc1	-7&9	103&101	109&103	5&13
NC(=O)C1CCN(CC(=O)N2c3ccccc3CCc3ccccc32)CC1	-2	101	99	-33
COc1ccc(CCNC(=O)COc2ccc3c(=O)c(-c4ccccc4)coc3c2)cc1OC	-19	101	104	-11
CCOC(=O)c1nc(NNC(C)=O)sc1C	21	99	103	-4
Cc1csc(CC(N)=O)n1	14	101	105	/
Cc1ccc(NC(=S)NC(C)(C)C)c(C)c1	-5	111	113	-19
O=C(COC(=O)c1ccccc1OCc1ccccc1)c1ccc(F)cc1	-5	98	98	/
C=CCNC(=S)Nc1ccn(Cc2ccccc2C)n1	-9	101	104	-4
N#CC1=C(N)OC(C2CC2)=C(C#N)C1c1ccccc1Cl (configuration not stated)	-8	104	101	-4
Cc1cccc(C(=O)N2CCN(c3ccc(N4CCCCCC4)nn3)CC2)c1	-7	102	105	-9
CC(C)S(=O)(=O)c1csc(C(=O)OCC(=O)C(C)(C)C)c1N	116	104	99	11
COc1ccc(N=c2scc(-c3ccc(O)c(C(N)=O)c3)n2CC2CCCO2)cc1 (configuration not stated)	-18	106	109	-5
CC(C)N1C(=O)S/C(=C/c2cccnc2)C1=O	6	102	97	-28
CCOC(=O)COc1ccc(C23CC4CC(CC(C4)C2)C3)cc1	8	102	100	6
CSc1nnc(CSc2ncccn2)n1C	11	100	107	3
COc1ccccc1CNC(=S)N(C)C	-4	105	106	-5
CC(Sc1nc(N)cc(=O)[nH]1)C(=O)NCC(=O)Nc1ccc(F)c(F)c1F (configuration not stated)	16	103	101	1
S=C1Nc2ccccc2C2CC=NN12 (configuration not stated)	22	102	94	-69
S=C(Nc1ccc(Cl)cc1Cl)NC(Cn1ccnc1)c1ccccc1 (configuration not stated)	-2	96	103	-18
O=C(O)COCC(=O)NC1CCN(Cc2c(F)cccc2Cl)CC1	-2	99	97	0
Cc1cc(Cl)nc(NN)c1C#N	/	102	113	-10
CC(C)Cn1cc(NC(=O)NCC2CCCO2)c2ccccc2c1=O (configuration not stated)	128	96	96	-1
COc1cc(Cl)c(C)cc1NC(=O)CN1C(=O)C2CC=CCC2C1=O (configuration not stated)	-1	92	101	13
O=C(COc1cccc(OCC(=O)Nc2ccccn2)c1)Nc1ccccn1	/	105	96	7
Cc1oc(-c2ccc(Cl)cc2)nc1CN1CCCC(C(=O)NC2CC2)C1 (configuration not stated)	3	99	103	9
Nn1c(Cc2cccs2)nc2ccccc2c1=O	2	102	98	-51
CON(C)S(=O)(=O)c1ccc(N=Cc2c(O)[nH]c(=O)[nH]c2=O)cc1	2	102	109	-85
CN1CCC(N(C)S(=O)(=O)c2ccc(F)cc2F)CC1	-5	97	108	-6
COc1cccc2c1C(=O)c1c(O)c3c(c(O)c1C2=O)C[C@@](O)(C(=O)CO)C[C@@H]3O[C@H]1C[C@H](N)[C@H](O)[C@H](C)O1	0	72	184	5
CN(Cc1ccccc1NCC(=O)NC1CCCC1)C1CCCCC1	-6	106	106	-3
CCn1c(COc2cccc3cccnc23)nnc1SCC(=O)OC	33	104	104	-13
CC1(C)CC(=O)C(Sc2ccc(Cl)cc2)=C(N2CCOCC2)C1	5	104	110	-5
Cc1ccccc1Nc1nc(N)nc(CN(C)Cc2ccc3c(c2)OCCO3)n1	12	109	123	-22
O=C(CSCc1ccccc1)Nc1ccc(-c2nc3cccnc3s2)cc1	112	99	98	-19
O=C(Nc1ccc(Cl)cc1Cl)ONC1=NCCCCC1	-10	103	110	-5
Cc1ccc(S(=O)(=O)Nc2ccc3c(c2)OCO3)cc1C(=O)N1CCOCC1	-6	101	102	-26
COc1ccc(CNC(=O)c2ccc(N(C)S(C)(=O)=O)cc2)cc1	0	101	101	0
COC(=O)c1cnc(N2CCCN(C(=O)NC3CCCCC3)CC2)nc1C(F)(F)F	-3	102	101	-6
COc1cc(C(=O)N2CCc3ccccc32)cc(OC)c1OC	13	101	100	22
COC(CNC(=O)c1ccc(-n2c(C)cc3c2CCCC3)cc1)OC	2	102	104	-34
COc1ccccc1OCC(=O)Nn1c(=S)[nH]c2ncccc2c1=O	24	102	104	-19
CCn1cc(C(=O)N(Cc2ccc(N(C)C)cc2)Cc2ccco2)c(=O)c2ccc(C)nc21	-5	102	99	-13
COc1cc(OC)c(C(=S)N2CCN(CCO)CC2)cc1OC	17	99	100	-9
Cc1c(C(=O)OC(C)C)c2cc(O)ccc2n1-c1ccccc1	-6	100	104	-15
Clc1ccc2oc(-c3ccccc3)cc(=NCCN3CCOCC3)c2c1	-206	103	104	-1
CC1=C2C(=NCCN1)C(=O)N(c1ccc(F)cc1)C2c1ccccn1 (configuration not stated)	0	72	194	0
Cc1cc(Nc2cccc(C(F)(F)F)c2)nc2ccc(NC(=O)Cc3cccs3)cc12	96	100	104	-26
CC1CC(N(C(=O)C(C)C)c2ccccc2)c2ccccc2N1 (configuration not stated)	-12	103	97	/
O=C1CC(c2ccc(S(=O)(=O)N3CCOC(COc4ccccc4)C3)cc2)CN1 (configuration not stated)	-1	104	102	-2

Remaining list, next part.
SMILES	Mtb MbtI inh	Polio RdRp inh	Polio RdRp inh intensity	MenB inh
CC(C)C(C(=O)OC1CSCC1NC(=O)c1ccccc1)N1C(=O)c2ccccc2C1=O (configuration not stated)	/	103	112	-5
O=C(Nc1sc2c(c1C(=O)N1CCOCC1)CCCCC2)c1ccccc1	/	103	102	11
CCOC(=O)N1CCN(C(c2ccccn2)c2cc(Cl)c3cccnc3c2O)CC1 (configuration not stated)	37	112	117	-93
O=c1[nH]cc(F)c(=O)[nH]1	30	101	102	3
COc1ccc(-c2noc(CN(C(=O)CN3C(=O)c4ccccc4C3=O)C(C)C)n2)cc1	-5	103	97	-4
Cc1c(Br)sc2sc(-c3ccnc(SCC(=O)NC(C)C)n3)c(C)c12	-3	101	108	-4
O=C(CSc1nnc(CNc2ccc(F)cc2)o1)N1c2ccccc2Sc2ccccc21	-6	105	99	-37
COc1ccc2nc(NCc3ccccc3)[nH]c2c1	-9	100	97	-1
CC1Cc2ccccc2N1C(=O)CSc1nccc(=O)[nH]1 (configuration not stated)	-17	101	104	-38
CCOC(=O)C(C(=O)Nc1ccccc1)C1CCCCC1 (configuration not stated)	-8	101	103	29
O=S(=O)(NCc1ccccc1)c1ccc(F)cc1	25	100	104	-23
Cc1ccc(C(=O)COC(=O)C2C3CC4OC(=O)C2C4C3)cc1 (configuration not stated)	-8	103	101	-11
O=C(CCC(=O)n1ncc2ccccc21)N1CCCCC1	-5	103	102	-4
O=C(O)CSCc1ccc(F)cc1	-9	100	101	-7
COC(=O)C1=C(C)N(C2CCCCC2)C(=O)/C1=C\c1ccc(N(C)C)cc1	-1	100	100	-7
O=C1C2C3C=CC(C3)C2C(=O)N1Cc1cccnc1 (configuration not stated)	-8	102	108	/
CCC12CN3CC(CC)(CN(C1)C3c1c(C)[nH]c3ccccc13)C2=O (configuration not stated)	/	103	101	-10
CCN(CC)c1ccc(NC(=O)COc2ccc(C)cc2C)c(C)c1	-5	103	104	-12
O=C(CC1(O)C(=O)c2ccccc2C1=O)c1ccccc1	-2	101	100	/

Compounds as they come; about 1.8% have a hit in one of these screens.
